Assay outcomes: PubChem BioAssay, Broad Institute
Tg IFNy HTS = T. gondii growth inhibition with IFN-gamma, primary screen, cell-based; Toxoplasma gondii growth in IFN-gamma-treated host cells; stronger effect = lower value; reference of the scale not given here; activity change, negative = inhibition, %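 (about 20 µM by stock and volumes)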; 69,000 tested, 3.8% active; AID 1259416, 2018;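 active = below -70%; inconclusive = fit judged invalid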;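 also: host cells are HeLa cells infected with Toxoplasma gondii; parasite growth read as luciferase light; one replicate is shown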
* = called active by the depositor; i = inactive; ? = inconclusive; & = joins results of further samples. This is a subset. The share of hits here may be higher or lower than overall.

SMILES	Tg IFNy HTS
CCOc1ccc(NC(=O)N2CCC3(CC2)c2cccn2-c2ccc(C)cc2N3CC)cc1	156
Cc1nnsc1CN(C)Cc1c(CO)cnc(C)c1O	-3
N#Cc1c(F)cccc1N1CCOCC1	15
CCc1ccc(-c2nccn2-c2ccc(Oc3nn[nH]n3)cc2)nc1	7
Cc1ccccc1S(=O)(=O)Nc1ccc2c(c1)C(=O)N(C)[C@@H]1CC[C@@H](CC(=O)O)O[C@H]1CO2	-3
CCN(C(=O)CC(=O)Nc1cc(C)cc(C)c1)C1CCOC(C)(C)C1 (stereo not given)	-8
COc1cc2sc(NC(=O)C(C)(C)n3cncn3)nc2cc1Cl	17
COc1ccc(C(=O)Nc2ccc(C(=O)OCC(=O)c3ccccc3)cc2)cc1OC	11
CCn1ccc2cc(S(=O)(=O)N3CCC(C(=O)N4CCN(c5ncccn5)CC4)CC3)ccc21	25
O=C(O)c1ccc(Oc2ccc(S(=O)(=O)c3ccc(C(=O)O)c(C(=O)O)c3)cc2)cc1	18

5 compounds already listed, ordered by formula weight, low to high.
SMILES	Tg IFNy HTS
CCc1ccc(-c2nccn2-c2ccc(Oc3nn[nH]n3)cc2)nc1	7
COc1cc2sc(NC(=O)C(C)(C)n3cncn3)nc2cc1Cl	17
CCOc1ccc(NC(=O)N2CCC3(CC2)c2cccn2-c2ccc(C)cc2N3CC)cc1	156
Cc1ccccc1S(=O)(=O)Nc1ccc2c(c1)C(=O)N(C)[C@@H]1CC[C@@H](CC(=O)O)O[C@H]1CO2	-3
CCn1ccc2cc(S(=O)(=O)N3CCC(C(=O)N4CCN(c5ncccn5)CC4)CC3)ccc21	25

Remaining list, next part
SMILES	Tg IFNy HTS
CCSc1nc(CC(=O)NCCc2c[nH]c3ccccc23)cs1	27
O=C(Nc1ccc(-c2nc(-c3ccccc3)co2)cc1)c1ccc2c(c1)OCO2	7
CCc1nc(N2[C@H](C#N)[C@@H](c3ccccc3-c3ccccc3C)[C@H]2CO)sc1C	24
Fc1cccc(CN2CCN(Cc3cnc(-c4ccco4)nc3)CC2)c1	-3
Cn1ncc2c(NCc3ccccc3-n3ccnc3)nc(-c3cccnc3)nc21	-17
CC(Cc1ccccn1)NC(=O)c1cc(-c2ccccc2F)no1 (stereo not given)	91
C[C@@H]1CN([C@@H](C)CO)C(=O)c2ccccc2-c2ccccc2CO[C@H]1CN(C)S(=O)(=O)c1cccc(C#N)c1	-37
CCOC(=O)c1cc(C2CC2)nc2c1c(=O)n(Cc1nc(-c3cc(C)ccc3C)oc1C)c(=O)n2C	-62
C[C@H](CO)N1C[C@H](C)[C@H](CN(C)C(=O)Nc2ccnc(N3CCOCC3)c2)OCc2ccccc2-c2ccccc2C1=O	-52
CC(NC(=O)c1cn2c(n1)CCCC2)c1cccnc1 (stereo not given)	-11

Exported bar-delimited: entries from further up.
smiles | Tg IFNy HTS
CCc1nc(N2[C@H](C#N)[C@@H](c3ccccc3-c3ccccc3C)[C@H]2CO)sc1C | 24
Fc1cccc(CN2CCN(Cc3cnc(-c4ccco4)nc3)CC2)c1 | -3
Cn1ncc2c(NCc3ccccc3-n3ccnc3)nc(-c3cccnc3)nc21 | -17
CC(Cc1ccccn1)NC(=O)c1cc(-c2ccccc2F)no1 (stereo not given) | 91
C[C@@H]1CN([C@@H](C)CO)C(=O)c2ccccc2-c2ccccc2CO[C@H]1CN(C)S(=O)(=O)c1cccc(C#N)c1 | -37
CCOC(=O)c1cc(C2CC2)nc2c1c(=O)n(Cc1nc(-c3cc(C)ccc3C)oc1C)c(=O)n2C | -62
C[C@H](CO)N1C[C@H](C)[C@H](CN(C)C(=O)Nc2ccnc(N3CCOCC3)c2)OCc2ccccc2-c2ccccc2C1=O | -52

(more compounds)
SMILES	Tg IFNy HTS
CN1CC2(CCN(C(=O)c3cc4c(C(F)(F)F)nn(C)c4s3)C2)OC1=O (stereo not given)	4
CCC(CC)NC(=O)c1ccc2nnc(C3CCN(C(C)=O)C3)n2c1 (stereo not given)	-9
CS(=O)(=O)N[C@@H]1CCN(CC2CC2)[C@@H]1Cc1cccnc1	5
Cc1cc(O)c2/c(=N\N)c(-c3csc(C)n3)coc2c1	3
COc1ccc(NC(=O)N2CCCCN3[C@H](CO)[C@H](c4ccc(-c5ccccc5F)cc4)[C@@H]3C2)cc1	-10
CN(Cc1cccc2ncccc12)Cc1cnn2cccnc12	2
CCOCc1nnc2n1CCN(C(=O)c1ccn[nH]1)C2	52
CCN1C(=O)CCc2cc(NS(=O)(=O)c3ccc(C)c(F)c3)ccc21	-72*
O=C1CC(C(=O)N2CCC(c3ccc(Nc4ncccn4)cn3)CC2)c2ccccc2N1 (stereo not given)	2
Cc1ccccc1-c1noc(CCCC(=O)NCc2ccc(Cl)cc2)n1	-65

Look-ups from the results shown:
`COc1ccc(NC(=O)N2CCCCN3[C@H](CO)[C@H](c4ccc(-c5ccccc5F)cc4)[C@@H]3C2)cc1` in Tg IFNy HTS shows -10
`CCN1C(=O)CCc2cc(NS(=O)(=O)c3ccc(C)c(F)c3)ccc21` in Tg IFNy HTS shows -72*

Continuation.
SMILES	Tg IFNy HTS
CN1CCN(C(=O)C[C@@H]2CC[C@H]3[C@@H](COC[C@@H](O)CN3CC3CCCCC3)O2)CC1	3
Fc1ccc(Cl)cc1-c1nc(Nc2ccncc2)c2nccnc2n1	-81*
Cc1c(Cl)c(C(=O)N2CCCC(O)(CN(C)C)C2)nn1C (stereo not given)	8
O=C(C1CC2(CCNCC2)CN1)N1CCN(c2nc3ccccc3o2)CC1 (stereo not given)	97
CCCCc1ncc(-c2nccn2Cc2ccoc2)[nH]1	-3
CO[C@@H]1CN(C)C(=O)c2ccc(NC(=O)c3ccccc3F)cc2OC[C@@H](C)N(C)C[C@@H]1C	101
COc1ccc(CNC(=O)Cn2ncc3c(N4CCCCC4)ncnc32)cc1	-102*
CC(C)(C)NC(=O)[C@@H]1C[C@@H]2CCCC[C@@H]2CN1C(=O)c1ccno1	25
CCN1CCC2(CC1)OC(=O)C(C)=C2C(=O)NCCCN1C(C)CCCC1C (stereo not given)	-1
O=C(NCCc1c[nH]c2ccccc12)c1cc(=O)nc2sc(N3CCCC3)nn12	5
CCC1c2cccn2CCN1Cc1cn(CCC(N)=O)c2ccccc12 (stereo not given)	27
COc1ccc2c3c(n(C)c2c1)[C@H](CO)N(C(=O)c1ccncc1)CC31CN(C(C)=O)C1	-47
CN1CC2(CCN(C(=O)c3ccc4nc(CO)[nH]c4c3)C2)OC1=O (stereo not given)	-17
CC1=C(C(=O)Nc2ccc(C)c(Cl)c2)C2(CCN(C(C)C)CC2)OC1=O	21
O=C(C1CCc2ccccc2O1)N1CCC(Cn2cc(C3CC3)nn2)CC1 (stereo not given)	11
NC(=O)C1Cc2ccccc2CN1S(=O)(=O)NCc1ccccc1 (stereo not given)	3
CCCS(=O)(=O)N1CCO[C@H]2[C@@H](Oc3cccnc3)CC[C@H]21	-47
O=c1c2ccccc2cnn1Cc1ccccc1	-4
COC(=O)c1cc(C)sc1NC(=O)C1CC(=O)NN1Cc1ccccc1 (stereo not given)	18
COc1ccc(-c2ccc(C3[C@H]4CNC[C@@H]3N4Cc3cncnc3)cc2)cc1 (stereo not given in full)	-16
COCC(=O)Nc1ccc2c(c1)C(=O)N(C)C[C@H](OC)[C@H](C)CN(C(=O)c1ccncc1)[C@H](C)CO2	107
c1ccc2nc3c(nc2c1)[nH]c1ccccc13	i
O=C(O)c1ccc(-c2ccc(O)c(F)c2)cc1	42
Cc1cccc(-c2cn[nH]c2C2CCN(C(=O)C3=NNC(=O)CC3)CC2)c1	9
CC(C)CC(O)C(=O)N1CCn2nc(C(=O)Nc3ccccc3)cc2C1 (stereo not given)	-2
CCN1CCCC1CNc1nc(-c2ccc(OC)cc2)nc2ccccc12 (stereo not given)	-25
O=C1N[C@H](c2ccccc2)COCc2cn(nn2)CC[C@@H]1Cc1ccc(C(F)(F)F)cc1	15
N#Cc1ccc(-c2ccc([C@@H]3[C@H]4CNCC(=O)N4[C@H]3CO)cc2)cc1	-25
Cc1ccc(-c2coc(-c3ccc(NS(=O)(=O)c4ccc(F)c(Cl)c4)cc3)n2)c(C)c1	-61
COc1ccccc1-c1ncc(CN2CCCC2c2ccccn2)s1 (stereo not given)	4
COCCC(=O)c1cc(-c2cnc(-c3ccnn3C)nc2)cn1CC1CC1	-56
N#Cc1c(-c2ccccc2)cc(-c2ccc(Cl)cc2)nc1N	10
COc1ccccc1C#Cc1ccc([C@H]2[C@H](C#N)N(C(=O)C3CCC3)[C@H]2CO)cc1	8
CSc1ccccc1NC(=O)CCC(=O)NC[C@H]1CCCC[C@H]1O	3
CCOc1ccc(-c2nc(CN3CCN(C(=O)Nc4cc(C)ccc4C)CC3)c(C)o2)cc1	6
Cc1ccc(-c2cccc(CN3CCN(C4CCN(C(C)C)CC4)C(CCO)C3)c2)o1 (stereo not given)	-26
COc1cccc2cc(C(=O)N3CCc4ccccc43)c(=O)oc12	14
COc1ccccc1-c1nc(Cc2noc(-c3cccc(F)c3)n2)c(C)o1	-40
COc1ccc(-n2c(SCCc3ccccc3)nc3ccccc3c2=O)cc1	-33
CC(C)N(C)[C@@H]1CCN(C(=O)C2CCOC2)[C@@H]1Cc1ccccc1 (stereo not given in full)	28
CCc1ccccc1NC(=O)N1CCCn2nnc(CN3CCCCC3)c2C1	-14
CCOC(=O)c1nc(NCc2cc(OC)ccc2OC)c2ccccc2n1	82
Cc1cnc(N2CCC3(CC2)CCN(c2cnn(C)c2)C3=O)nc1	0
COc1cc(N2C[C@H]3COC[C@@]3(COc3ncccc3F)C2)ncn1	6
COc1ccc(C(=O)Nc2ccc(-c3nc(-c4ccc(C)cc4)co3)cc2)cc1	-47
CC(C)N(C)[C@@H]1CN(Cc2cnn(C)c2)C[C@H]2CCCO[C@H]21	-1
O=C(Nc1ccc(-c2nc(-c3ccccc3)co2)cc1)Nc1cccc(C(F)(F)F)c1	-51
Cc1nc(-c2cccc(F)c2)sc1CCNC(=O)c1ccccc1	5
CCc1ccc(NC(=O)Cn2ncc3c(N4CCN(c5ccccc5)CC4)ncnc32)cc1	-66
Nc1nccc(Oc2ccc(NC(=O)c3c[nH]cc(-c4ccc(F)cc4)c3=O)cc2F)c1Cl	?
More structures:
SMILES	Tg IFNy HTS
COc1ccc(S(=O)(=O)N2CSC[C@@H]2C(=O)NCCc2csc(-c3ccccc3)n2)cc1	-61
Cc1nn(CC(=O)Nc2ccc(N3CCOCC3)cc2)c(C)c1Br	-4
C/C=C/c1ccc([C@H]2[C@@H](CNC(=O)CC3CC3)N(C(=O)CC)[C@H]2CO)cc1	12
CC1=C(C(=O)NCc2ccc(F)cc2)C2(CCN(S(=O)(=O)c3cccs3)CC2)OC1=O	27
COc1ccc(OC)c(NC(=O)N2CCC3(CC2)Nc2cc(C)ccc2-n2cccc23)c1	225
Cc1ccc2c(c1)c1c3n2CCCNC3CCC1 (stereo not given)	20
CC(C)(C)c1ccc(C(=O)n2c(=S)oc3ccc(Cl)cc32)cc1	46
C=CCN1C[C@@H]2CN(C(=O)c3ccnn3C)C[C@H]2C1=O	8
CC(=O)Nc1cccc(-c2ccc(C(=O)Nc3cccnc3)o2)c1	-10
O=C(O)C[C@@H]1CC[C@H]2[C@@H](COC[C@H](O)CN2S(=O)(=O)c2ccc(Oc3ccccc3)cc2)O1	-1
CC=Cc1ccc2n(c1=O)C[C@@H]1N[C@H]2[C@H](C(=O)NC2CCCC2)[C@H]1CO (mixture of isomers)	-7
COc1ccc(-c2ccc3c(c2)[C@H]2[C@H](CCN2C(=O)c2cccc(F)c2)[C@H](CO)N3)cc1	-56
Cc1ccc(-c2nc(C(=O)N3CCCCC3c3cccnc3)c3n2CCCCC3)cc1 (stereo not given)	105
COc1ccc(CCN2C(=O)CC(N3CCN(c4ccccc4)CC3)C2=O)cc1OC (stereo not given)	-15
Cc1nc(C)c(-c2ccn(C(=O)c3c(C)noc3C)n2)o1	63
CCn1nc(CNC(=O)c2cccc(C3CCNC3)c2)c2ccccc21 (stereo not given)	-86*
C/C=C/c1ccc([C@@H]2[C@H](CO)N[C@H]2CNS(=O)(=O)c2ccccc2)cc1	-33
OC1(C#Cc2ccccc2)CCCCC1	7
Cc1nnsc1CN(C)Cc1c(C)n(C)n(-c2ccccc2)c1=O	1
CCOc1ccccc1NC(=O)CCNC1CCS(=O)(=O)C1 (stereo not given)	-18
Cc1ccc(-c2ccc(-c3nnco3)cc2)c(-n2cccn2)c1	-3
C=CCC(C)(C)CN(C)Cc1ncc[nH]1	2
O=C(C[C@@H]1CC[C@H](NC(=O)C2CC2)[C@@H](CO)O1)Nc1ccccc1	0
COC(=O)c1ccc(N2CCC(O)CC2)c(N)c1	61
CCCn1nccc1C(=O)N1CCNCC1C(=O)NCc1ccncc1 (stereo not given)	1
CCOC(=O)C1CCCN(S(=O)(=O)c2ccc(F)c(Cl)c2)C1 (stereo not given)	-28
Cc1ccc(-c2csc(-c3cnccn3)n2)c(C)c1	-9
O=S(=O)(c1ccccc1)N1CCC2(CC(n3ccnc3)CO2)C1 (stereo not given)	236
COc1ncccc1-c1cc(C(C)=O)ccc1N1CCOCC1	5
CC(C)Nc1nc2c(cc1C(=O)N1CCCC1)CCN(c1ncccn1)CC2	88
C=CC[C@@H]1/C=C(\C)C[C@H](C)C[C@H](OC)[C@H]2O[C@@](O)(C(=O)C(=O)N3CCCC[C@H]3C(=O)O[C@H](/C(C)=C/[C@@H]3CC[C@@H](O)[C@H](OC)C3)[C@H](C)[C@@H](O)CC1=O)[C@H](C)C[C@@H]2OC	-62&-60
CCOc1ccc(-c2cc3c(=O)n(Cc4nc(-c5ccccc5)oc4C)ccn3n2)cc1Cl	209
CC(C)c1ccc(CN2CCCC(O)(CN(C)Cc3cnn(C)c3)C2=O)cc1 (stereo not given)	2
CC(C)(C)c1ccc(C(=O)OCc2ccc3c(c2)OCO3)s1	-43
CN(Cc1nc2ccc(F)cc2[nH]1)CC1CCNCC1	-23
Cc1cccc(-c2nc(CN(c3ccccc3)S(=O)(=O)c3ccccc3)c(C)o2)c1	-40
COCCCN(C(=O)Nc1c(C)cccc1Cl)C1CCN(C)CC1	0
Cc1cnc(NCCN(C)S(C)(=O)=O)nc1N(C)C	5
CC(=O)N1CCO[C@@H]2CN(Cc3nccs3)C[C@H]2C1	40
CC(=O)NCC1CCCN(c2nc(C(C)(C)C)nc3c2cnn3C)C1 (stereo not given)	-1
